ALR inh: blocks human ALR sulfhydryl oxidase activity. inhibition, % (concentration not given with the values). AID 485317. purified ALR, DTT oxidation, H2O2 HRP-luminol luminescence. 3.8% of 290,000 active. P55789;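 active = mean and each replicate at 75% or more; inconclusive = only one of the two met; inactive = neither met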;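 note: stock transfer was 7.5 nL into about 7.5 µL; 0% = neutral wells and 100% = wells with inactivated enzyme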
Target sequence (P55789 whole entry, looked up): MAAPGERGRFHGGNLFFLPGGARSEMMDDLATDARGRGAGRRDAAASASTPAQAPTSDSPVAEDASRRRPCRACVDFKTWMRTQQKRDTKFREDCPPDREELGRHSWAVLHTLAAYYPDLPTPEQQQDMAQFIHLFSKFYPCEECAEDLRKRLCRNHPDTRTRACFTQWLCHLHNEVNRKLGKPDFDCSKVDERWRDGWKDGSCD
Beta cell apopt: beta cell apoptosis inhibition; protection from apoptosis, % (no concentration beside the values); 0.8% of 300,000 active; INS-1E cytokine-induced death, ATP luminescence, 48 h; percent of positive-control rescue, neutral wells zero;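 active = all replicates at 75% or more, or half of them and the mean; inconclusive = half reach 75% but not the mean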;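 note: 0% = cytokine-treated negative control wells and 100% = positive control rescue; higher means more ATP so stronger rescue from cytokine killing; wells of about 40 µL received 100 nL stock; the first replicate is given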
FGF22 binding: binders of recombinant human FGF22 by thermal shift | Q9HCT0 | SYPRO orange fluorescence; percent of sucrose octasulfate shift, DMSO zero | calls only at 9.99 µM | 1.5% of 340,000 active;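 active = melting point raised past a set limit in the mean and every replicate; inconclusive = no clear call; three in four hits are not shown here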
Target sequence (Q9HCT0 whole entry, looked up): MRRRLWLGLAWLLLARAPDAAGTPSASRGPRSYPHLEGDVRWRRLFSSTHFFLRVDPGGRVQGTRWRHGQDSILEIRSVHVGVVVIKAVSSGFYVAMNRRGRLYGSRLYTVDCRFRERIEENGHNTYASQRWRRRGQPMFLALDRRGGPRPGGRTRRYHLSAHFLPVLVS
rRNA inh HTS: inhibitors of bacterial rRNA selective over humanized ribosomes. E. coli WT GFP vs humanized-ribosome RFP mutants, fluorescence, 24 h; active compounds read low; DMSO median 0, no signal -100. GFP signal change (wild-type ribosome), % (concentration not given with the values). 1.6% of 350,000 active. AID 720706;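 active = significant combined selectivity score with lowered wild-type GFP, culture density cut under 30%, mutant RFP and density less affected; inactive = any of these conditions unmet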; note: one replicate is shown; some compounds called inactive have numbers as strong as hits
MLL AF4-AF9 inh: inhibitors of human MLL-AF4/AF9 interaction; 0.47% of 350,000 active; P42568; inhibition, % at 10 µM; AID 651704; AlphaScreen, biotin-AF4 peptide binding to FLAG-AF9;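 active = every replicate reaching a set inhibition limit, whatever the replicate mean, cut at about 25% in these data; inconclusive = mean inhibition reaches that limit but some replicates miss it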;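 note: 0% = plate neutral control median and 100% = total signal loss; the record names both 10 and 1 µM as test concentration; the first replicate is given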
Target sequence (P42568 whole entry, looked up): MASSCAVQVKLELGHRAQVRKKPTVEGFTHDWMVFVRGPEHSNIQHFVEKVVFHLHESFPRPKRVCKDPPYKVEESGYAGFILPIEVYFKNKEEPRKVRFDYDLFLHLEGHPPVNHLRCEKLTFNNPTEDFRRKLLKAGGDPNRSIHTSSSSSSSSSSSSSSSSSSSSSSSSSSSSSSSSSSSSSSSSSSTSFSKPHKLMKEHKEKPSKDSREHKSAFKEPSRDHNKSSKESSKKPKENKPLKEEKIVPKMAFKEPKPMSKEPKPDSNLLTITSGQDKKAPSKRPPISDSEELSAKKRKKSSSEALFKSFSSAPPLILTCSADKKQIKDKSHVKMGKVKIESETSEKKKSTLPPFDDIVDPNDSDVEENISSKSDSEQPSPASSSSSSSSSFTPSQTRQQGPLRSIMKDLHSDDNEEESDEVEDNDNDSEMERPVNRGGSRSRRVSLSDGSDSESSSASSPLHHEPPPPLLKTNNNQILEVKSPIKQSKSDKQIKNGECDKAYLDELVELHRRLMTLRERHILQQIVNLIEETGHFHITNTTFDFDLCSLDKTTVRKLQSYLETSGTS
T cruzi repl: blocks replication of Trypanosoma cruzi. T. cruzi beta-gal in NIH3T3, luminescence, 90 h. inhibition, % (no concentration beside the values). 1.4% of 300,000 active. AID 1885;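 active = mean inhibition across valid replicates above about 55%, limit read from the data; inconclusive = mean below that limit but half or more replicates reach it; inactive = mean below it, under half of replicates reach it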;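 note: signal also drops with host cell toxicity which is not excluded here; 0% = plate median of DMSO wells and 100% = zero luminescence signal; higher percent means less beta-gal luminescence so fewer parasites; stock transfer was 50 nL into about 50 µL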
RanGTP-Impb inh: inhibitors of RanGTP-importin-beta interaction, primary screen, biochemical, FRET, CFP-Ran, YFP-importin-beta, homogeneous | AID 2216 | cell-free CFP-Ran/YFP-importin-beta FRET ratio | inhibition, % (no concentration beside the values) | 1.1% of 300,000 active;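 active = most replicates above 15%; inconclusive = exactly half above 15%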;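 note: 0% = DMSO wells and 100% = Ran loaded with GDP instead of GTP; wells of about 40 µL received 100 nL stock; the first replicate is given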
Calb FLC: C. albicans growth modulation with fluconazole; C. albicans CaCi-2 (fluconazole-resistant clinical isolate) + fluconazole, Alamar Blue growth, 48 h; growth inhibition, % (no concentration beside the values); 0.57% of 300,000 active;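 active = most replicates above 75%; inconclusive = exactly half above 75%; inactive = most below 75%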;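 note: all wells also contain fluconazole at 8 µg/ml as a sub-toxic cotreatment; 0% = median of DMSO wells and 100% = median of geldanamycin control wells; wells of about 8 µL received 7.5 nL stock; the first replicate is given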
rRNA inh HTS OD600: also measured in rRNA inh HTS; calls as there; OD600 change, %; measured here: OD600 growth;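 optical density of the mix in the first replicate; 0 = DMSO median and -100 = no signal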
rRNA inh HTS RFP: recorded beside rRNA inh HTS, whose call it bears; RFP signal change, %; measured here: RFP humanized mutant strains;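 first replicate; 0 = DMSO median and -100 = no signal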
The depositor's hits bear a star; i = inactive; ? = inconclusive; / = no result given. This is a subset; the hit share may differ from the screen's.

Each structure is followed by: ALR inh | Beta cell apopt | FGF22 binding | rRNA inh HTS | rRNA inh HTS OD600 | rRNA inh HTS RFP | MLL AF4-AF9 inh | T cruzi repl | RanGTP-Impb inh | Calb FLC
Cc1nc2ccccc2nc(C)c1=NOCc1ccccc1Cl
  -4 | / | i | -23 | -22 | -11 | 5.7 | -28 | -3.3 | -12
CCn1nnc2cc(C(=O)OCC(=O)N(C)Cc3cccc(F)c3)ccc21
  -3 | -9 | i | -8 | -5 | 0.2 | -19 | / | / | /
COCCN1Cc2cccc(C(=O)NCc3cccs3)c2C1=O
  0 | 5 | i | 7 | 5 | -1.5 | -5.7 | -3 | -0.5 | 4
CCN(CC)CCC(c1ccc2c(c1)OCO2)c1c(O)cc(OC)cc1OC (centres undefined)
  -3 | 2 | / | / | / | / | / | 0 | -1.8 | -9
CC(=O)c1ccc(N2CCN(CC(=O)Nc3ccc(N4CCOCC4)cc3)CC2)cc1
  49 | 3 | / | / | / | / | / | -10 | -0.5 | -8
Cc1cc(N/C=C(\C#N)S(=O)(=O)c2ccc(Cl)cc2)nc(C)n1
  -2 | -9 | i | -2 | 7 | 9.5 | 4.0 | -24 | 2.7 | -5
CCCCCOC(=O)c1[nH]c2c(c1C)C(=O)C(C(=O)OC)C(C)C2 (centres undefined)
  2 | 5 | / | / | / | / | / | 14 | 3.3 | -7
CCC1CN(C(=O)NCc2ccccc2)c2ccccc2O1 (centres undefined)
  0 | -14 | i | -22* | -12* | -1.5* | -4.0 | -12 | -3.7 | 1
CC(=O)Cc1nsc(NC(=O)c2ccccc2)n1
  -4 | 0 | / | / | / | / | / | -15 | -1.7 | -14
CCN1CCN(Cc2oc(CO)cc(=O)c2O)CC1
  -4 | -2 | / | / | / | / | / | -17 | 3.2 | ?
O=C(NC1CCCC1)C(c1ccccn1)N(C(=O)c1csnn1)c1ccccc1Br (centres undefined)
  / | -1 | i | 3 | 12 | 0.1 | -7.5 | -1 | -10 | -6
Cc1cccc(C(C)n2nnc3ccccc32)c1O (centres undefined)
  24 | 1 | i | -14 | -16 | -17 | -17 | -16 | 1.5 | -12
COc1ccc(C2NC(=S)N3C(c4ccc(OC)cc4)NC(=S)N23)cc1 (centres undefined)
  / | -2 | / | / | / | / | / | -6 | 0.8 | 4
CCOC(=O)c1ccccc1NC(=O)c1c(F)c(F)c(F)c(F)c1F
  13 | -2 | / | / | / | / | / | -12 | 1.7 | 7
CCOC(=O)Cc1csc(NS(=O)(=O)c2ccc([N+](=O)[O-])cc2)n1
  -11 | / | i | 1 | 3 | -1.8 | -1.0 | 0 | ? | ?
COc1ccc(NC(=O)NNC(=O)COc2ccc3cc(Br)ccc3c2)cc1
  -60 | -1 | i | 6 | 11 | 1.4 | -1.0 | 8 | 0.7 | 3
Cc1ccc(S(=O)(=O)NC(CC(C)C)C(=O)N2CCN(C/C=C/c3ccccc3)CC2)cc1 (centres undefined)
  44 | -3 | i | / | / | / | 4.3 | / | / | /
Cc1ccccc1C(=O)NCC(c1ccco1)N1CCc2ccccc2C1 (centres undefined)
  -3 | -3 | i | -2 | -2 | 1.0 | -0.5 | -2 | -0.6 | 8
Cc1cc(C)nc(NNC(=O)c2ccccc2O)n1
  95* | 24 | i | 14 | 17 | 2.3 | -3.1 | -11 | 0.2 | 5
OCCCc1nc2n(n1)C(c1ccccc1Cl)C=C(c1cccs1)N2 (centres undefined)
  7 | 2 | / | / | / | / | / | 1 | 34* | ?
CC1CCN(C(=O)CSc2nnc(CNC(=O)COc3ccc(Cl)cc3)o2)CC1
  -3 | 1 | / | / | / | / | / | 6 | -4.3 | -26
COc1ccc(-c2cc3c(=O)n(CC(=O)NCc4ccc(F)cc4)ncn3n2)cc1
  4 | 32 | i | 2 | 5 | 3.2 | -5.8 | -37 | 0.0 | 7
CCOC(=O)c1cc2nc(Nc3ccc(OC)cc3)sc2s1
  -10 | -6 | / | / | / | / | / | 28 | 1.0 | /
COc1ccc(NC(=O)CN(C)C(=O)c2cc(C)on2)cc1
  -2 | 2 | i | 2 | 6 | -1.3 | -13 | -4 | -4.3 | /
Cc1ccc2c(c1)NC(=O)C(CC(=O)NCCCN1CCN(c3cc(C)ccc3C)CC1)O2 (centres undefined)
  4 | 4 | i | -4 | -13 | 6.6 | 1.0 | 13 | 5.2 | 11
COCCSc1nnc(NC(=O)C2CC(=O)N(C3CCCC3)C2)s1 (centres undefined)
  / | -2 | i | 5 | 1 | -0.1 | 9.9 | -7 | -0.3 | -2
O=c1oc(Cc2ccccc2)nc2ccccc12
  -9 | 1 | i | 4 | 2 | 5.3 | -2.5 | -8 | 0.4 | -7
Cn1cnnc1SCC(=O)Nc1ccccc1C(=O)NC1CC1
  / | -3 | / | / | / | / | / | -6 | -1.9 | -3
COC(=O)c1c(-c2c(Cl)cccc2Cl)noc1NC(=O)NN1CCOCC1
  11 | 3 | i | 12 | -6 | -1.5 | / | -4 | 0.7 | 14
CN(CC(=O)Nc1ccccc1Cl)CC(=O)Nc1c(F)cccc1F
  -8 | 0 | i | -4 | -4 | -5.5 | 2.3 | 3 | 3.1 | 26
O=C(COC(=O)/C=C/c1ccc(Cl)cc1)NCCC1=CCCCC1
  -1 | -2 | / | / | / | / | / | -14 | -3.5 | -20
c1ccc(-c2cn3nc4c(nc3n2)CCCC4)cc1
  -3 | 6 | / | / | / | / | / | -3 | 83* | 3
C/C(=N\OCC(=O)OCC(=O)NCc1ccccc1)c1ccc2c(c1)OCO2
  0 | / | i | 2 | 3 | 2.7 | 2.2 | -13 | ? | 2
CC(OC(=O)CNC(=O)c1ccc2ccccc2c1)C(=O)N(C)C1CCCCC1 (centres undefined)
  / | -2 | i | -12 | -16 | 1.6 | 5.3 | -10 | -4.5 | 11
CCCCNC(=O)c1onc(CSc2cccc(OCC)c2)c1C(=O)O
  1 | / | i | -19 | -12 | -1.0 | -3.8 | -6 | -2.3 | 0
Cc1ccc(S(=O)(=O)NCc2nc3nc(C)cc(C)n3n2)c(C)c1
  -9 | -4 | i | 10 | 10 | 0.5 | -13 | -14 | 1.8 | -4
CC(OC(=O)Cc1ccccc1[N+](=O)[O-])C(=O)NC(=O)NC1CCCCC1 (centres undefined)
  1 | 2 | i | 4 | 4 | -2.4 | -14 | 8 | 1.0 | /
N#C/C(=C\c1ccccc1)C(=O)Nc1cccnc1
  / | -15 | i | 7 | 18 | 1.4 | / | 4 | 4.9 | -3
CC(C)N(Cc1nccn1C)C(=O)c1ccc(OC2CCN(C(=O)C3CC3)CC2)cc1
  / | 3 | i | 4 | 5 | -4.2 | -8.5 | -9 | -3.4 | -2
O=C(Nc1c[nH]c(=O)[nH]c1=O)c1cccc([N+](=O)[O-])c1
  -12 | -3 | i | 6 | 6 | 0.6 | 2.9 | -1 | -2.1 | -3
O=C(c1ccc(Cl)c(S(=O)(=O)N2CCCCC2)c1)N1CCN(Cc2ccccc2)CC1
  / | -5 | i | -46 | -68 | -6.9 | 0.0 | 9 | 0.7 | -8
NC(=O)CN(c1ccc([N+](=O)[O-])cc1)S(=O)(=O)c1ccccc1
  / | -3 | i | 17 | 11 | -5.2 | -2.7 | 7 | -3.3 | -1
CN=C1c2ccccc2CN1c1cccc(C(=O)OC)c1
  4 | 5 | / | / | / | / | / | 8 | -1.1 | -3
CCC(CC)C(=O)NCCc1ccc(OC)cc1
  -4 | -1 | / | / | / | / | / | 2 | 2.3 | 18
Cc1ccc2c(c1)C(SCC(=O)NCCc1ccccc1)CC1(CCCC1)O2 (centres undefined)
  -5 | -3 | i | 5 | -6 | -1.0 | 2.3 | 31 | 2.5 | 1
NC(=S)NNC(=S)Nc1ccccc1
  97* | -3 | / | 15 | 18 | 0.8 | -4.4 | 0 | 2.7 | 3
C=CCn1c(SCC(=O)C23CC4CC(CC(C4)C2)C3)nc(O)cc1=O
  5 | 1 | i | 4 | 6 | 17 | -2.9 | 3 | ? | -1
C=CCN(c1cccc(C(F)(F)F)c1)S(=O)(=O)c1cccc(C(=O)OCC(=O)NCCC)c1
  -7 | -8 | i | -8 | -10 | 0.6 | -11 | -9 | 0.7 | 3
Cn1c(N)c(C(=O)Nc2ccccc2F)sc1=S
  99* | -1 | i | -16 | -12 | -1.5 | / | / | -3.0 | 0
COc1ccc(S(=O)(=O)N2CCCC2C(=O)Nc2nnc(-c3cccnc3)s2)cc1 (centres undefined)
  -4 | 5 | / | / | / | / | / | 1 | 0.3 | 49
COc1ccc(OC)c(C(C(=O)NC2CCCCC2)N(C(=O)c2snc(C(N)=O)c2N)c2ccccc2OC)c1 (centres undefined)
  / | 2 | i | 13 | 17 | 1.9 | 0.5 | 34 | 5.9 | 8
N#CC1(NC(=O)COC(=O)c2ccc(-c3ccc(O)cc3)cc2)CCCCC1
  58 | 0 | i | / | / | / | 0.8 | / | / | /
Cc1ccc(O)c(NC(=O)c2noc3c2CCCCC3)c1
  3 | 9 | i | -15 | -10 | -0.5 | 0.3 | 4 | 1.5 | 3
COc1ccc(NC(=O)CN2CCC(NC(=O)C3CCCCC3)CC2)c([N+](=O)[O-])c1
  / | -2 | i | 14 | -4 | -2.2 | 0.3 | 4 | 4.1 | 0
CN1/C(=C/C(=O)C2CC2)C(C)(C)c2ccccc21
  / | 21 | i | 9 | 1 | 48 | 0.4 | / | -0.6 | 0
COc1cc(=O)[nH]c(SCC(=O)Nc2ccc3ccccc3c2)n1
  7 | -6 | i | -2 | 1 | 5.8 | -0.3 | -7 | -0.3 | 12
CNC(=O)Nc1cc(C(F)(F)F)cc(C(F)(F)F)c1
  0 | 6 | i | 2 | 2 | 1.9 | 0.9 | 16 | 1.8 | 86*
O=C(O)c1cc(O)c2c(c1)C(=O)c1cc(O)cc(O)c1C2=O
  -4 | 7 | i | 2 | 19 | 13 | -0.4 | 0 | 2.0 | -3

Already shown: three of the compounds above.
Each structure is followed by: ALR inh | Beta cell apopt | FGF22 binding | rRNA inh HTS | rRNA inh HTS OD600 | rRNA inh HTS RFP | MLL AF4-AF9 inh | T cruzi repl | RanGTP-Impb inh | Calb FLC
CCC(CC)C(=O)NCCc1ccc(OC)cc1
  -4 | -1 | / | / | / | / | / | 2 | 2.3 | 18
Cc1ccc2c(c1)C(SCC(=O)NCCc1ccccc1)CC1(CCCC1)O2 (centres undefined)
  -5 | -3 | i | 5 | -6 | -1.0 | 2.3 | 31 | 2.5 | 1
NC(=S)NNC(=S)Nc1ccccc1
  97* | -3 | / | 15 | 18 | 0.8 | -4.4 | 0 | 2.7 | 3
